RecA splice inh: blocks M. tuberculosis RecA intein splicing | P9WHJ3 | cell-free RecA intein splicing, fluorescence | inhibition, %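 (about 9 µM by stock and volumes)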 | 290,000 tested, 0.75% active | AID 2221; in the data active = inhibition above about 30%;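 also: 0% = vehicle wells and 100% = reference inhibitor control wells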
Target sequence (P9WHJ3 whole entry, looked up, canonical isoform): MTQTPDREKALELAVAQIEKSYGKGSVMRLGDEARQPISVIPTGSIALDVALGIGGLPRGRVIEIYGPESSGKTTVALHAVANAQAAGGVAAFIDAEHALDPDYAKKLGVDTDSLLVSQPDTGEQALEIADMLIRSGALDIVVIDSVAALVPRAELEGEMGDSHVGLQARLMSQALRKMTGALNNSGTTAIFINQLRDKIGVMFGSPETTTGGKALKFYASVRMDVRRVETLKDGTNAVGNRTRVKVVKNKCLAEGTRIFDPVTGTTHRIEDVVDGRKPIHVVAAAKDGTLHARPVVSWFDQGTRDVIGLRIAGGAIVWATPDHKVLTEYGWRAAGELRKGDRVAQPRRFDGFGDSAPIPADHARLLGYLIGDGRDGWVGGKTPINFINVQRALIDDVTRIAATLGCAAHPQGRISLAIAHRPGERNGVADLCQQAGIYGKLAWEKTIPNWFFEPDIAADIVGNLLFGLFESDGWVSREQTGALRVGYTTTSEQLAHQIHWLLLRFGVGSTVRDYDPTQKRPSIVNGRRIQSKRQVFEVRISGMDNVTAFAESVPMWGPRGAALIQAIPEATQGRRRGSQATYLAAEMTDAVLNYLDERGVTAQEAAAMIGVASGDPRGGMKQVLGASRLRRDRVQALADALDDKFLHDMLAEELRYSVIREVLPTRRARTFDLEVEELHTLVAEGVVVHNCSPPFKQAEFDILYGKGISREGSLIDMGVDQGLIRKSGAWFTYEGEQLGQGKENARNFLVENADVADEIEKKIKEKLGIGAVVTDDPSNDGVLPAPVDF
Mtb growth: M. tuberculosis H37Rv growth inhibitors, H37Rv strain (AID 1626); 220,000 tested, 0.95% active; inhibition, % at 10 µM, or IC50 in µM where a hit was titrated; M. tuberculosis H37Rv growth inhibition; higher % means a stronger effect;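 active = confirmed in a dose series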;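 also: bacteria incubated seven days before Alamar blue readout; 0% = bacteria only wells and 100% = bacteria with antibiotic wells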
Mtb betalactam: beta-lactam sensitization of Mtb H37Rv; M. tuberculosis H37Rv growth with meropenem, percent inhibition; hits of this screen are not shown here; inhibition, % at 25 µM; 330,000 tested, 0.27% active; AID 434955;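 active = about 74% or more and at least 40 points above the plate without the antibiotic, then above 30% in a dose series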;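 also: growth measured after seven days incubation then overnight dye step; 0% = bacteria only wells and 100% = bacteria with antibiotic; twin plates without the antibiotic show which effects depend on it; some results filed as inactive read as strong as hits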
Arbovirus anti: blocks arbovirus infection; arbovirus infection cell-based antiviral screen; inhibition, % at 10 µM; AID 1251; 200,000 tested, 0.37% active;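 active = inhibition from about 30%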;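 also: bluetongue infection of BSR cells; cell survival read as ATP light after 72 h; 0% = infected wells without compound and 100% = uninfected wells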
YopH inh: YopH (Yersinia) phosphatase inhibition | fluorescence Ex485/Em525 | 140,000 tested, 0.16% active | AID 898 | inhibition, %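 (about 10 µM by stock and volumes)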;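 active = inhibition of 50% or more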;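 also: controls were vehicle for no effect and minimum signal wells for full effect; inactives centre near -20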
Arbovirus anti repeat: second read-out of Arbovirus anti, no call of its own (marks repeat the call); inhibition, %; measured here: 10K subset replicate screen; many hits read low in the repeat;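 first of two repeat runs on a subset; 0% = infected and 100% = uninfected wells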
* = called active by the depositor; . = not tested or not shown. A portion of the library; rates above refer to the full screens.

SMILES	RecA splice inh	Mtb growth	Mtb betalactam	Arbovirus anti	YopH inh	others
COc1ccc(C)cc1NC(=O)CSc1nnc2ccc(-c3ccccn3)nn12	-10.3	.	-19.6	.	.
O=C(NC1CCCCC1)C(c1ccc(F)cc1)N(Cc1ccco1)C(=O)c1csnn1 (stereo not drawn)	1.3	.	1.8	.	.
COc1cccc(OCc2cc(C(=O)N3CCN(C4CCCCC4)C(=O)C3)no2)c1	0.7	.	-6.2	.	.
CC1(C)C2CCC(C2)C1(C)NC(=O)CNCC1CCCCC1 (stereo not drawn)	-0.4	9.3%	6.3	-6.6	.
CCOC(=O)Cn1cnc2c(nnn2-c2cccc(OC)c2)c1=O	-1.8	.	-8.2	.	.
Cc1ccccc1CNC(=O)c1ccc(CSCc2ccccc2)cc1	-1.3	6.1%	2.5	-5.1	-19.8
CC(C)c1cc(-c2cc(C(=O)NCc3ccccc3)on2)nc(NCC2CC2)n1	6.0	17.1%	80.2	.	.
COc1ccc2[nH]c(C(=O)O)c(NC(=O)c3ccccc3[N+](=O)[O-])c2c1	-2.5	15.0%	0.0	.	.
CC(=O)Nc1ccc(NC(=O)CSc2nc(N)c(NC(=O)c3ccco3)c(=O)[nH]2)cc1	1.5	.	28.9	.	.
COc1ccc(CCNC(=O)C(=O)NCc2cccs2)cc1OC	-1.6	-0.7%	-0.6	-10.7	.
Cc1ccc(-c2nn(-c3ccccc3)cc2/C=N/n2c(-c3cccs3)n[nH]c2=S)cc1	0.4	26.8%	15.3	.	.
O=C(N/N=C/c1cccc2ccccc12)C(=O)N1CCCC1	-3.1	.	-1.2	.	.
NC(=O)C1(N2CCCCC2)CCN(S(=O)(=O)c2ccccc2)CC1	-0.1	.	6.0	.	.
O=C(O)Cn1nnnc1SCC(=O)Nc1ccccc1F	-2.6	-13.3%	0.7	6.3	.
Cc1ccc(C)c(-c2csc(Nc3ncccn3)n2)c1	0.2	.	-0.8	.	.

Next part (two carried over from the part before).
SMILES	RecA splice inh	Mtb growth	Mtb betalactam	Arbovirus anti	YopH inh	others
O=C(O)Cn1nnnc1SCC(=O)Nc1ccccc1F	-2.6	-13.3%	0.7	6.3	.
Cc1ccc(C)c(-c2csc(Nc3ncccn3)n2)c1	0.2	.	-0.8	.	.
CC1CCCCN1Cc1c(O)ccc2c(=O)c(-c3nc4ccccc4s3)coc12 (stereo not drawn)	-6.2	-2.4%	-8.7	.	.
CC(=O)c1cccc(NC(=O)C(C)OC(=O)c2cccc(-n3cnnn3)c2)c1 (stereo not drawn)	1.8	.	-4.9	.	.
CCOc1[nH]n(-c2ccc(Cl)cc2)c(=O)c1C=Nc1ccc(Cl)cc1	0.6	-6.1%	-4.3	7.3	-39.0
COc1cccc(CN2CCNC(=O)C2CC(=O)O)c1OC (stereo not drawn)	-6.7	2.9%	-2.4	3.5	-4.4	Arbovirus anti repeat=2.5
CCOc1ccc(OCCC(=O)OCC(=O)Nc2cc(C)nn2-c2ccccc2)cc1	-0.1	.	4.6	.	.
CN1CCN(Cc2ccc(Sc3ccc(Cl)cc3)c([N+](=O)[O-])c2)CC1	3.7	18.9%	-6.1	-33.6	.
CCc1c(O)nc(SCC(=O)Nc2ccccc2)n(-c2ccccc2)c1=O	2.6	-7.2%	-4.6	10.2	-34.2
COc1ccc(C2C(C(=O)Nc3cccc(C)n3)CCC(=O)N2c2ccc(OC)cc2)cc1 (stereo not drawn)	-3.7	-10.8%	-0.4	-15.8	-28.2
Cc1c(C(=N)C(C#N)C#N)c(=N)oc2c1ccc1ccccc12	-1.2	-9.3%	-0.1	.	.
CN(C)CCOC1c2ccccc2CCc2ccc3ccccc3c21 (stereo not drawn)	2.5	.	-2.3	.	.
CCn1cc(S(=O)(=O)NC(C)c2cc(OC)ccc2OC)cn1 (stereo not drawn)	1.1	.	-12.8	.	.
O=C(O)c1ccc(S(=O)(=O)N2CCC(Cc3ccccc3)CC2)cc1	-3.2	.	-6.3	.	.
Nc1cccnc1S(=O)(=O)c1ccccc1	1.4	.	-4.5	.	.
CCOc1ncccc1C(=O)OCC(=O)N1CCc2ccccc21	1.0	3.5%	96.0	3.9	.
O=C(CSc1nnc(SCc2cccc3ccccc23)s1)Nc1ccc(C(=O)O)cc1	5.9	-1.9%	0.6	3.4	.
COc1ccc(Br)cc1C(=O)Nc1ccc(C(=O)O)cc1	0.3	2.3%	2.3	-1.1	.
O=C(Cc1n[nH]c(=O)c2ccccc12)OCC(=O)c1ccc2c(c1)OCCO2	1.6	2.4%	-1.2	-4.8	-36.9
COCCN(C(=O)Cc1ccc(OC)c(OC)c1)c1nc(-c2cc(OC)ccc2OC)cs1	-4.2	.	1.4	.	.
COc1ccc(-n2cc(CNCCN3CCOC3=O)c(-c3ccccc3Cl)n2)cc1	-0.5	2.8%	-5.5	.	.
CC(C)(CNC(=O)c1ccc(Cl)c(S(=O)(=O)N2CCc3ccccc3C2)c1)N1CCOCC1	-0.7	5.7%	0.7	-1.2	.
C/C(CC(=O)Nc1ccc(F)cc1)=N\NC(=O)COc1ccccc1	65.8*	1.2%	0.5	-7.2	-26.6
CCN(CCn1cccn1)Cc1c(C(=O)N2CCCCCCC2)nc2ccc(Cl)cn12	0.9	-1.6%	-6.2	-3.0	.
CCNC1CCS(=O)(=O)C1 (stereo not drawn)	1.0	-7.7%	3.4	.	.
CCC1(c2ccccc2)NC(=O)N(CC(=O)Nc2ccccc2N2CCCCC2)C1=O (stereo not drawn)	7.6	.	-2.3	.	.
O=C(CN(Cc1ccco1)C(=O)CCC(=O)Nc1ccccn1)NCCc1ccccc1	1.0	8.8%	2.6	4.2	-30.0
CC(Nc1nc(N2CCOCC2)nc2ccccc12)c1ccccc1 (stereo not drawn)	-0.6	-0.5%	14.9	3.0	.
Cc1ccc(S(=O)(=O)N2CCN(Cc3ccco3)CC2)cc1C	2.0	.	-2.0	.	.
O=C(NCC1CCCO1)c1cccc(Oc2ccc([N+](=O)[O-])cc2Cl)c1 (stereo not drawn)	1.6	8.6%	7.9	-3.9	.
CC(Oc1ccccc1)C(=O)N1CCN(c2ccc(N3CCCCCC3)nn2)CC1 (stereo not drawn)	-1.7	.	-1.6	.	.
O=C(Nc1ccc(Br)cc1)N1CCCCCCC1	-0.7	-5.8%	2.1	-3.5	-25.3

Structures listed so far that have a COOH group, in the order listed:
SMILES	RecA splice inh	Mtb growth	Mtb betalactam	Arbovirus anti	YopH inh	others
COc1ccc2[nH]c(C(=O)O)c(NC(=O)c3ccccc3[N+](=O)[O-])c2c1	-2.5	15.0%	0.0	.	.
O=C(O)Cn1nnnc1SCC(=O)Nc1ccccc1F	-2.6	-13.3%	0.7	6.3	.
COc1cccc(CN2CCNC(=O)C2CC(=O)O)c1OC (stereo not drawn)	-6.7	2.9%	-2.4	3.5	-4.4	Arbovirus anti repeat=2.5
O=C(O)c1ccc(S(=O)(=O)N2CCC(Cc3ccccc3)CC2)cc1	-3.2	.	-6.3	.	.
O=C(CSc1nnc(SCc2cccc3ccccc23)s1)Nc1ccc(C(=O)O)cc1	5.9	-1.9%	0.6	3.4	.
COc1ccc(Br)cc1C(=O)Nc1ccc(C(=O)O)cc1	0.3	2.3%	2.3	-1.1	.

More structures follow.
SMILES	RecA splice inh	Mtb growth	Mtb betalactam	Arbovirus anti	YopH inh	others
O=C1/C(=C/c2cccc(O)c2)SC(=S)N1CC1CCCO1 (stereo not drawn)	-0.4	.	-3.8	.	.
c1csc(CSc2nc3ccccc3s2)c1	6.1	6.1%	5.3	-3.7	-28.3
COCCNC(=O)c1c[nH]n2c(=O)cc(C3CCN(C(=O)OC(C)(C)C)CC3)nc12	1.0	-2.3%	2.1	3.8	-40.5
NNc1cc(C(=O)O)ccc1Cl	-2.3	-6.2%	1.9	.	.
Cc1ccc(-c2nn(C)c(=O)c3ccccc23)cc1S(=O)(=O)N1CCOCC1	-4.2	-2.2%	0.1	-8.4	-10.7
CN(CC(=O)Nc1cccc(F)c1)C(=O)CCCc1nc2ccccc2c(=O)[nH]1	1.8	.	-18.1	.	.
CCN(CC)c1ccc(NC(=O)Nc2cccc3ccccc23)cc1	-8.3	.	-2.5	.	.
CN(c1ccccc1)S(=O)(=O)c1cccc(NC(=O)CSc2n[nH]c(N)n2)c1	0.5	2.3%	0.7	.	.
Cc1ccc(-n2cccn2)c(CN2CCCC(CNC(=O)c3ccc(F)cc3)C2)c1 (stereo not drawn)	-0.5	-1.8%	0.1	-3.5	.
COc1cccc(C=O)c1OCCN1C(=O)c2ccccc2C1=O	0.4	.	-2.0	.	.
COc1cc(Cl)ccc1OCc1cc(C(=O)N2C[C@@H]3CCC[C@H]2C3)no1	1.2	.	10.8	.	.
Clc1ccc(SCCCN2CCCCC2)cc1	-1.6	-4.0%	-5.9	.	.
Cc1ccc(S(=O)(=O)NNC(=O)CCC(=O)Nc2ccc(C)c(C)c2)cc1	-3.0	-0.4%	59.9	3.5	-0.3
O=C(O)c1ccccc1-c1ncc(-c2ccccc2)o1	-1.6	.	-0.9	.	.
Cc1cc(N2C(=O)C(=O)/C(=C(/O)c3ccccc3)C2c2cccc(Br)c2)no1 (stereo not drawn)	1.6	.	-1.4	.	.
CC1CCc2c(C(=O)NCc3ccccn3)csc2C1 (stereo not drawn)	-0.9	3.5%	1.4	-7.2	-19.3
COc1ccc(C)cc1S(=O)(=O)N(CC(=O)Nc1cccc([N+](=O)[O-])c1)c1ccccc1	-1.5	0.5%	9.2	3.6	-0.6
CCn1c(SCC(=O)Nc2ccccc2F)nc2c(c1=O)SC(C)C2 (stereo not drawn)	.	-21.2%	14.1	13.7	7.5
CCC1CN(C(=O)NCc2cccc(OC)c2)c2cc(Cl)ccc2O1 (stereo not drawn)	0.9	.	3.4	.	.
CCOc1ccc2nc(C)cc(Nc3cccc([N+](=O)[O-])c3)c2c1	3.2	5.0%	11.4	-41.8	-16.5
CC(C)(C)c1ccc(C(=O)Nc2ccc(O)c3c(=O)cc(-c4ccccc4Cl)oc23)cc1	-0.8	2.4%	7.3	.	.
O=C(Nc1cc(Cl)ccn1)C1CCN(S(=O)(=O)c2cccs2)CC1	-0.5	.	-6.8	-3.6	-3.7
O=C(c1cc(=O)c2ccccc2o1)N1CCCc2ccccc21	1.1	-0.2%	5.6	-2.0	-6.3
O=C(NC(=S)Nc1cc(C(F)(F)F)ccc1N1CCOCC1)c1sc2ccccc2c1Cl	3.4	-4.8%	-4.3	29.2	-28.5
O=C(Nc1cccc(Cl)c1)C1CCN(C(=O)c2cccs2)CC1	1.3	.	-2.5	.	.
CC(C)OC(=O)c1cccc(-c2ccc(C=O)o2)c1	4.3	7.5%	-2.8	5.1	-21.7
Cc1ccc(/C=N/n2c(C)nc3ccccc3c2=O)s1	1.1	-1.2%	0.2	0.2	.
COc1ccc(CCNC(=O)c2cnc3scc(C)n3c2=O)cc1OC	0.0	-2.6%	-5.7	0.5	-15.6
COCC(=O)N1CCC(Oc2ccc(C(=O)N(C)CCCC3CCCC3)cc2)CC1	1.1	.	-1.7	.	.
Cc1ccccc1C(=O)Nc1ccnn1C1CCN(C(=O)c2ccoc2)CC1	0.1	.	-1.0	.	.
Cc1ccc(-c2ccc(S(=O)(=O)N3CCN(C)CC3)cc2)cc1	-1.1	-3.0%	-19.3	5.7	-25.4
COc1ccc(-c2[nH]ncc2CN2CCCCCCC2)c(OC)c1	-0.6	5.4%	12.5	-4.0	.
COc1ccc(NC(=O)C(=O)NCc2ccncc2)c(OC)c1	2.1	-3.5%	19.8	-0.8	-14.5
O=C(CNC(=O)c1ccc(OC(F)F)cc1)NCc1ccccn1	-1.1	.	-3.0	.	.
O=C(CSc1nnc(-c2ccccc2)o1)NC1CCCC1	-0.6	.	5.6	.	.
C=CCNCCCOc1ccc(C)cc1Br	1.0	-3.9%	4.0	-15.2	-5.9
CCCc1cc(C(=O)Nc2sc3c(c2C#N)CCC3)no1	-1.9	.	-1.1	-7.3	-31.7	Arbovirus anti repeat=-10.9
CC(=O)C1=C(O)CC(C)(C)CC1=NCc1nc2ccccc2[nH]1	-1.0	-2.7%	-3.2	10.3	.
Cn1c(SCCOc2ccc(Cl)cc2)nnc1-c1ccncc1	-1.4	-4.8%	-22.5	0.1	-49.6
COCCCNc1nc2ccccc2nc1NS(=O)(=O)c1ccc(C)cc1	-0.9	-15.4%	-6.0	.	.
CCc1cccc(NC(=S)N(CCCN2CCOCC2)C(C)c2cc3cccc(OC)c3o2)c1 (stereo not drawn)	8.2	-11.9%	-1.7	6.8	.
CCc1ccc(C(=O)NNc2ccc(C)c(Cl)c2)cc1	1.3	70.5%	97.7	.	.
CCCCNC(=O)C1CCN(C(=O)C2CCN(S(=O)(=O)c3ccc(C)cc3)CC2)CC1	-1.0	.	-0.6	.	.
Cc1n[nH]c(=O)c2c(NC(=O)CSc3nc4ccccc4c(=O)n3CCCOC(C)C)oc(C)c12	0.7	.	-1.4	.	.
COCC1CCCN(C(=O)c2ccc3oc(CCCc4ccccc4)nc3c2)C1 (stereo not drawn)	3.0	.	-9.0	.	.
